Vaccinia Venus – inhibitors of vaccinia virus (Venus reporter); Vaccinia virus Venus reporter expression, fluorescence; Potency, µM (highest dose often 36.5 µM), without a hit: at the top dose activity change, negative = inhibition, most hits filed as inhibitors; 0.46% of 330,000 active; active means well fitted inhibition curve with a large enough effect; inconclusive means small, poorly fitted or top-dose-only effect; inactive means no such curve, though single readings can be large or run the other way; tested in A549 cells; also: nearly all actives have a fitted effect of over 30% in size; inactives centre near -10
Vaccinia mCherry – vaccinia inhibition (mCherry reporter); Vaccinia virus mCherry reporter infection, fluorescence; about a quarter of the inactives have no number; Potency, µM (top dose mostly 36.5 µM), for the others: at the highest dose activity change, negative = inhibition, hits mostly inhibitors; 0.63% of 310,000 active; active = well fitted inhibition curve with a large enough effect; inconclusive = small, poorly fitted or top-dose-only effect; inactive = no such curve, though single readings can be large or run the other way; tested in A549 cells; also: nearly all actives have a fitted effect of over 35% in size; inactives centre near -10
Active calls of the source: *; i = inactive; ? = inconclusive; . = no result given; & = joins results of further samples; [ ] = dose if it differs, or a comment. % is scaled to controls: 0 for no effect and ±100 for the full control effect; potency is read from the fitted curve at half-maximal effect.

SMILES	Vaccinia Venus	Vaccinia mCherry
COc1cc(C2NC(=O)NC(C)=C2C(=O)NCc2ccccc2)c(Cl)cc1O (stereo not drawn)	-11%	-13%
O=C(Nc1ccc2c(c1)OCO2)c1sc2cc(Cl)ccc2c1Cl	-22%	-9%
S=c1[nH]c2ccccc2c2ccccc12	-6%	i
Cc1cc(C)cc(NC(=O)c2cnn(-c3ccc(C)c(C)c3)c2C2CCNCC2)c1	-15%[7.34 µM]	-16%[7.34 µM]
c1ccc(CCc2nn3c(-c4ccncc4)nnc3s2)cc1	-12%	i
COc1cccc(C(=O)NCC(=O)OCc2cc(=O)n3ccsc3n2)c1	-14%	-13%
O=C(CCCNC(=O)c1ccc(Cl)cc1)Nc1ccc(S(=O)(=O)Nc2ncccn2)cc1	-2%	-1%
CCC(CC)c1nnc(NC(=O)c2ccc(N3CCCC3=O)cc2)s1	-8%	-15%
CC(=O)N1c2ccc(S(=O)(=O)NCCC(=O)N(C)Cc3ccccc3)cc2CC1C (stereo not drawn)	4%[7.34 µM]	-5%[7.34 µM]
N/C(COc1ncn(-c2ccccc2)n1)=N\S(=O)(=O)c1ccc(Cl)cc1Cl	-12%	-2%
CC1CCC(NC(=O)COC(=O)C2CC3CCCC(C2)C3=O)CC1 (stereo not drawn)	-6%	-7%
COc1ccc(CNC(=O)Cc2ccc(NC(=O)N3CCSc4ncccc43)cc2)cc1	-12%	-11%

SMILES	Vaccinia Venus	Vaccinia mCherry
COc1ccc(N/C(C)=C2/C(=O)C(=O)N(CCO)C2c2ccc([N+](=O)[O-])cc2)cc1 (stereo not drawn)	-2%	.
CCOc1ccc(S(=O)(=O)N2CCCCC2)cc1NC(=O)Cc1ccc(OC)cc1	?	?
CC1=C(C)/C(=N\OS(=O)(=O)c2ccccc2)C=CC1=O	?	?
O=C1C(=Nc2cccc(Cl)c2)CC(c2ccc(Cl)cc2)N1c1cccc(Cl)c1 (stereo not drawn)	-22%	?
Cc1ccc(NC(=O)CCN2C(=O)c3ccccc3S2(=O)=O)cc1F	-7%	i
O=C(C1=C[C@@H](C2CCCCC2)C[C@@H](OCCCCO)O1)N1CCOCC1	-14%	i
Cc1ccc(S(=O)(=O)N(CC(=O)NCc2cccs2)c2ccccc2)cc1	-24%	-18%
Cc1ccc(C(=O)NCC(c2ccco2)S(=O)(=O)c2ccc(Cl)cc2)cc1C (stereo not drawn)	-18%	-12%
Cc1occc1-c1nnc(SCC(=O)N2CCCCC2)o1	-15%	-12%
O=C(COC(=O)c1cc(=O)[nH]c2ccccc12)Nc1nc(-c2cccc(Br)c2)cs1	-23%	-14%
COc1ccc(CNC(=O)Nc2ccc3c(c2)N(C)C(=O)c2ccccc2S3)cc1	-22%	-16%
COc1ccc2[nH]c(C(O)(Cc3cccnc3)Cc3cccnc3)cc2c1	-18%	-10%

SMILES	Vaccinia Venus	Vaccinia mCherry
CC1(C)CC(N(Cc2ccc(F)cc2)C(=O)c2ccc(F)cc2)CCO1 (stereo not drawn)	-14%	-21%
O=C(NCCS(=O)(=O)N1CCN(c2ccc(F)cc2)CC1)C1CC(=O)N(c2ccc(F)cc2)C1 (stereo not drawn)	-11%	-9%
O=C(CN1C(=O)C2C3CCC(C3)C2C1=O)N1CCN(Cc2ccccc2)CC1 (stereo not drawn)	-15%	-10%
Cn1c(=O)c(C(=O)CN2CCOCC2)c(N)n(Cc2ccccc2)c1=O	-10%	-25%
Cc1cc(/C=C2\C(=O)NC(=O)N(c3cccc(F)c3)C2=O)c(C)n1-c1cc(C(=O)O)cc(C(=O)O)c1	2%	-9%
CC1(C(=O)Nc2ccc3nc[nH]c3c2)CCN1C(=O)CCc1ccccc1 (stereo not drawn)	4%	-1%
O=[N+]([O-])c1ccc(C(=S)N2CCN(c3ccc(F)cc3)CC2)cc1	-4%	-4%
CN(C)c1cccc(C(=O)OCC(=O)Nc2ccccc2-c2ccccc2)c1	-8%	-9%
CCn1c(SCC(=O)c2[nH]c(C)c(C(C)=O)c2C)nnc1-c1ccncc1	-6%	-9%
C=CCn1c(-c2cccs2)nc2ccccc21	-20%	.
CC(=O)n1cc(/C=N/NC(N)=S)c2ccccc21	?	?
Cc1csc(C(C)N(C)C(=O)c2cnn(-c3nccc(-c4cc(C)sc4C)n3)c2C)n1 (stereo not drawn)	-5%	-14%

SMILES	Vaccinia Venus	Vaccinia mCherry
O=C1NC[C@H](Cc2ccc(O)cc2)N(CC2CCCCC2)C1=O	-8%	-3%
CC1CCCCC1NC(=O)c1cccc(S(=O)(=O)N2CCN(C)CC2)c1 (stereo not drawn)	-11%	-14%
C[C@@]1([C@@H](NP(=O)(c2ccccc2)c2ccccc2)c2ccccc2)C[C@H]1CCO	-10%	-24%
CCOC(=O)CN1C(=O)c2ccccc2Sc2ncccc21	-12%	-10%
C=CCNC(=O)COC(=O)c1cc(S(=O)(=O)N2CCOCC2)ccc1N1CCCCC1	-21%	-24%
COc1ccc(-c2cc(C(=O)N3CC(C)CC(C)C3)c3ccccc3n2)cc1 (stereo not drawn)	-21%	-4%
COC(C(=O)NNC(=O)Cc1ccc(Cl)cc1)c1ccccc1 (stereo not drawn)	4%[7.34 µM]	i[7.34 µM]
CCOCCCNCC(O)c1ccccc1 (stereo not drawn)	-6%	i
CCOc1ccccc1C(=O)Nc1cnn(Cc2ccc(F)cc2)c1	-27%	?
COc1ccc(-c2csc(/C(C#N)=C(\O)CSc3nccn3C)n2)cc1OC	13%	-8%
O=C(NCc1ccccc1Cl)c1cccn1-c1nnc(N2CCCCC2)s1	-8%	-1%
COc1ccc(O)c(CN2CCCC(C(=O)c3ccccc3SC)C2)c1 (stereo not drawn)	-5%	i

SMILES	Vaccinia Venus	Vaccinia mCherry
Cc1ccc(S(=O)(=O)Nc2ccccc2/C=N/c2nc3ccccc3n2C)cc1	-6%	-16%
COc1ccc(NC(=O)c2sc3nc4c(cc3c2N)N2CCC4CC2)cc1OC	-20%	-16%
COc1cc(C(C(=O)NC(C)(C)C)N(Cc2ccccc2)C(=O)c2cnccn2)cc(OC)c1OC (stereo not drawn)	-2%	-16%
CCC/C=C/c1ccc(CN2C(CC(C)C)C(=O)N(Cc3cn(CCOCOC)nn3)CCS2(=O)=O)cc1 (stereo not drawn)	-18%	-7%
CCOc1cc(C(=O)O)cc(Cl)c1OCC#N	-4%	-8%
O=C(NCc1cccnc1)c1ccc2nc([C@@H]3O[C@H](CO)[C@H](O)[C@H](O)[C@H]3O)[nH]c2c1	-5%	34%[activator]
CN(C)S(=O)(=O)c1cccc(NC(=S)NN=C(Cc2ccccc2)Cc2ccccc2)c1	-26%	-27%
CCN(CCN(C)C)C(=O)Cn1ncc2c([nH]c3ccc(C)cc32)c1=O	2%	-13%
Cc1nc(SCCOc2ccccc2)[nH]c(=O)c1Cc1ccccc1	9%	9%
CC(=O)/C(=N\Nc1ccccc1)Sc1cccc2cccnc12	-10%	-16%
CCc1ccc(C(=O)c2cn(CC(=O)Nc3ccc(F)cc3)c3ccc(F)cc3c2=O)cc1	-10%	-14%
Cn1c(NC(=O)c2ccco2)cc(=O)n(C)c1=O	1%	-6%

SMILES	Vaccinia Venus	Vaccinia mCherry
COc1ccc(-c2nnc(SCC(=O)NC3CCCCC3)nc2-c2ccc(OC)cc2)cc1	-3%	-8%
COc1ccc(NC(=O)c2cnn(-c3ccc(C)c(C)c3)c2C2CCNCC2)cc1OC	-3%	-21%
OC1(c2ccc(OC(F)F)cc2)CSC(=Nc2cccnc2)N1Cc1ccco1 (stereo not drawn)	-11%	i
CCN(CC)C(=O)c1[nH]cnc1C(=O)NC1CCN(C(=O)OC(C)(C)C)CC1	-5%	-23%
Cc1noc(NC(=O)c2cccc(C(F)(F)F)c2)c1Cl	-7%	-9%
O=C(c1ccccc1F)N1CCCC(C(=O)N2CCN(c3ccccc3)CC2)C1 (stereo not drawn)	-15%	i
CCS(=O)(=O)N1Cc2cc(C(=O)NCCOC)nc(-c3cccc(-c4ccncc4)c3)c2[C@H]1CCO	4%	-7%
CCc1ccccc1NC(=S)N(CCN1CCCCCC1)Cc1ccco1	-14%	-12%
CC(=O)N1c2ccc(S(=O)(=O)NCCC(=O)Nc3ccc(F)cc3C)cc2CC1C (stereo not drawn)	0%[7.34 µM]	i[7.34 µM]
CCC(=NC1CC1)c1c(O)n(C2CCCCC2)c(=O)[nH]c1=O	-12%	-13%
O=S(=O)(c1ccc(Cl)cc1)n1nnc2ccccc21	0%	-14%
C=Cn1ccnc1P(=S)(c1ccc(N(C)C)cc1)c1nccn1C=C	-2%	-12%

SMILES	Vaccinia Venus	Vaccinia mCherry
Cc1ccc(CNC(=O)c2nc(SCc3ccccc3F)ncc2Cl)cc1	-17%	i
Cc1noc(C(F)(F)F)c1C(=O)NNC(=O)c1ccccc1	-12%	-19%
O=C(CN1CCCC1)NC12CC3CC(CC(C3)C1)C2	-11%	i
CCOC(=O)CC(NC(=O)CCc1c(C)nc2ncnn2c1C)c1ccc(C)cc1 (stereo not drawn)	-13%&5%	2%
Oc1ccccc1/C=C/c1noc(-c2ccccc2O)n1	-17%	-9%
O=C(NCCN1CCOCC1)c1cc2ccccc2oc1=O	-10%	i
CCC(=O)NCCC(c1ccco1)c1ccccc1OC (stereo not drawn)	-24%	.
CC(=O)OC1C=C[C@]2(C)C(CC(OC(C)=O)[C@@]3(C)C4=CC(=O)OC(c5ccoc5)[C@]4(C)CCC23)C1(C)C (stereo partly drawn)	-19%	-17%
Cn1c2c(c3cc([N+](=O)[O-])ccc31)CCCC2	-2%	-23%
Cc1cc(C(=O)OCC(=O)Nc2cccc(S(N)(=O)=O)c2)c2ccccc2n1	2%	-1%
O=C(Nc1nnc([C@H]2C[C@H](O)[C@@H](CO)O2)s1)NC1CCCCC1	-5%	37%[activator]
CN1CCCN(C(=O)c2ccc(Cl)s2)CC1	2%	i

Grouped by structure, those above with an aryl methoxy group.
SMILES	Vaccinia Venus	Vaccinia mCherry
COc1cc(C2NC(=O)NC(C)=C2C(=O)NCc2ccccc2)c(Cl)cc1O (stereo not drawn)	-11%	-13%
COc1cccc(C(=O)NCC(=O)OCc2cc(=O)n3ccsc3n2)c1	-14%	-13%
COc1ccc(CNC(=O)Cc2ccc(NC(=O)N3CCSc4ncccc43)cc2)cc1	-12%	-11%
COc1ccc(N/C(C)=C2/C(=O)C(=O)N(CCO)C2c2ccc([N+](=O)[O-])cc2)cc1 (stereo not drawn)	-2%	.
CCOc1ccc(S(=O)(=O)N2CCCCC2)cc1NC(=O)Cc1ccc(OC)cc1	?	?
COc1ccc(CNC(=O)Nc2ccc3c(c2)N(C)C(=O)c2ccccc2S3)cc1	-22%	-16%
COc1ccc2[nH]c(C(O)(Cc3cccnc3)Cc3cccnc3)cc2c1	-18%	-10%
COc1ccc(-c2cc(C(=O)N3CC(C)CC(C)C3)c3ccccc3n2)cc1 (stereo not drawn)	-21%	-4%
COc1ccc(-c2csc(/C(C#N)=C(\O)CSc3nccn3C)n2)cc1OC	13%	-8%
COc1ccc(O)c(CN2CCCC(C(=O)c3ccccc3SC)C2)c1 (stereo not drawn)	-5%	i
COc1ccc(NC(=O)c2sc3nc4c(cc3c2N)N2CCC4CC2)cc1OC	-20%	-16%
COc1cc(C(C(=O)NC(C)(C)C)N(Cc2ccccc2)C(=O)c2cnccn2)cc(OC)c1OC (stereo not drawn)	-2%	-16%
COc1ccc(-c2nnc(SCC(=O)NC3CCCCC3)nc2-c2ccc(OC)cc2)cc1	-3%	-8%
COc1ccc(NC(=O)c2cnn(-c3ccc(C)c(C)c3)c2C2CCNCC2)cc1OC	-3%	-21%
CCC(=O)NCCC(c1ccco1)c1ccccc1OC (stereo not drawn)	-24%	.

Record cards (already shown). Screens in order: Vaccinia Venus, Vaccinia mCherry
Cc1noc(C(F)(F)F)c1C(=O)NNC(=O)c1ccccc1 in the list: -12%, -19%
Oc1ccccc1/C=C/c1noc(-c2ccccc2O)n1 in the list: -17%, -9%
O=C(CN1CCCC1)NC12CC3CC(CC(C3)C1)C2 in the list: -11%, i

High-throughput results: PubChem BioAssay, National Center for Advancing Translational Sciences (NCATS)
